VDR inhibitor: Inhibitors of the vitamin D receptor (VDR): qHTS; VDR-SRC2-3 peptide fluorescence polarization, 2 h; Potency, µM, inactives show max response, negative = inhibition, actives largely listed as inhibitors; hit rate 0.93% among 400,000; AID 504847, 2011; active means well fitted inhibition curve with a large enough effect; inconclusive means small, poorly fitted or top-dose-only effect, or another doubt; inactive means no such curve, though single readings can be large or run the other way; further: series mostly up to about 120 µM
Target sequence (P11473 whole entry, looked up): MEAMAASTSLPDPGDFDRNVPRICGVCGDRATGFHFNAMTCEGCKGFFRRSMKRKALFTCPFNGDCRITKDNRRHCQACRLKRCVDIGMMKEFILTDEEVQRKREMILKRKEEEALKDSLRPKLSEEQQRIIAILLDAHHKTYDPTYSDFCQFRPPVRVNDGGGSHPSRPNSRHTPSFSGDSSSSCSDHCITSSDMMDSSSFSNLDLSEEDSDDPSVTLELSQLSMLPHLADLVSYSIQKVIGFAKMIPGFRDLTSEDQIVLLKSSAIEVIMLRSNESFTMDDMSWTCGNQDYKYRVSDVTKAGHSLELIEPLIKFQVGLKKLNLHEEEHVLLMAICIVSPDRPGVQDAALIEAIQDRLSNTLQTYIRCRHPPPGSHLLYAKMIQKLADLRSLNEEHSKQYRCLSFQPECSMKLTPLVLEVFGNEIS
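Signal is fluorescence polarization, reporting how far test compounds block the interaction of VDR with the SRC2-3 coregulator peptide after a 2 h room-temperature incubation.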
Active calls of the source: *; & = joins results of further samples. On the % scale 0 is the no-effect control and ±100 the full control effect; potency means the concentration at half of the fitted maximal effect. These rows are one share of the data. The share of hits here may be higher or lower than overall.

`COCCn1c(-c2ccc(Cl)cc2)cnc1SCC(=O)NCCc1ccc(OC)c(OC)c1` gave VDR inhibitor -7%.
Screening CCOC(=O)COc1c(C=O)cc(Br)cc1OC returned VDR inhibitor -6%.
For CCc1cc(-c2n[nH]c(=S)n2N)n(C)n1 the results were VDR inhibitor -18%.
Screening CC(=O)C1=C(O)CCCC1=NCc1nc2ccccc2[nH]1 returned VDR inhibitor 13%.
COc1ccc2c(c1)OCC(Cc1ccc(OC)c(OC)c1)C2O (stereo not drawn) was read as VDR inhibitor 4%&1%.
Screening COc1ccc(/C(C)=N/NC(=O)CNC(=O)c2cccnc2)cc1OC returned VDR inhibitor -4%.
CCc1ccc(-n2c(=S)sc3c(=O)n(-c4ccccc4C)c(SCC(=O)O)nc32)cc1 was read as VDR inhibitor -10%.
For O=C(CC(c1ccc(F)cc1)c1ccco1)Nc1nccs1 (stereo not drawn) the results were VDR inhibitor -24%.
CC(C)(NC(=O)c1cc(Cl)c2ccccc2c1O)C(=O)O was read as VDR inhibitor -15%.
Screening C[C@@H](NCCCn1ccc(NC(=O)OCc2ccccc2)nc1=O)c1cccc2ccccc12 returned VDR inhibitor -1%.
Screening Cc1cccc(CN2C(=O)CSc3ccc(C(=O)NC4CC4)cc32)c1 returned VDR inhibitor 6%.
`CCOc1ccc(OCC(=O)OCn2c(SC)nnc(C)c2=O)cc1` gave VDR inhibitor 3%.
For COc1ccc(NC(=O)CC(C)NCCCN2CCCC2=O)cc1 (stereo not drawn) the results were VDR inhibitor 3%.
For COc1ccc(CNc2ncnc3ccc(-c4ccc(N(C)C)cc4)cc23)c(OC)c1 the results were VDR inhibitor inconclusive.
`CCC1CCCCN1CCCNC(=O)c1sc2nc(C)cc(C)c2c1-n1cccc1` (stereo not drawn) gave VDR inhibitor 13%.
Cc1cc(NS(=O)(=O)c2ccc(NC(=O)C(C)Oc3ccc(C(C)C)cc3)cc2)no1 (stereo not drawn) was read as VDR inhibitor -11%.
Screening Cc1cc(C)c[n+](C(C)C(=O)c2ccc(Cl)cc2)c1 (stereo not drawn) returned VDR inhibitor 4%.
For COc1ccc(S(=O)(=O)NCc2ccccc2Cl)cc1OC the results were VDR inhibitor 18%.
Screening O=C(CSc1nc(=O)n(Cc2ccco2)c2c1CCC2)Nc1cccc(F)c1 returned VDR inhibitor -5%.
O=C1C2C3C=CC(CC3)C2C(=O)N1/N=C/c1c[nH]c2ccccc12 (stereo not drawn) was read as VDR inhibitor -9%.
`CC1CCc2nc3ccc(S(=O)(=O)N4CCC(C(=O)O)CC4)cc3c(C(=O)O)c2C1` (stereo not drawn) gave VDR inhibitor 2%.
For CC(C)C(=O)N1CCN(c2nc(-c3ccccc3)c3c(c2C#N)CCCC3)CC1 the results were VDR inhibitor -3%.
CCOC(=O)c1ccc(NC(=O)CN2C(=O)C(C)SC(C)C2=O)cc1 (stereo not drawn) was read as VDR inhibitor -23%.
Cc1ccc(C(=O)NC(=S)NNC(=O)c2ccccc2[N+](=O)[O-])cc1 was read as VDR inhibitor inconclusive.
COCCNC(=O)CCc1c(C)nc2c(c(C)nn2-c2ccc(C)cc2)c1C was read as VDR inhibitor 0%&11%.
Screening O=C(OCN1C(=O)c2ccccc2C1=O)c1cccc(S(=O)(=O)N2CCOCC2)c1 returned VDR inhibitor -4%.
For CS(=O)(=O)Oc1ccc(/C=C2\C(=N)N3N=C(CC(=O)N4CCOCC4)SC3=NC2=O)cc1Cl the results were VDR inhibitor -12%.
Screening CCOC(=O)C1=C(C)OC(N)=C(C#N)C1c1ccc(C)s1 (stereo not drawn) returned VDR inhibitor -3%.
For Cc1cccc(C)c1NC(=O)CNC(=O)C1CCCC1 the results were VDR inhibitor 0%.
For Cc1cccc(N2CCN(C(=O)C3CCN(S(=O)(=O)N4CCOCC4)CC3)CC2C)c1 (stereo not drawn) the results were VDR inhibitor -2%.
For CC(=O)Oc1ccc2c(c1)O/C(=C\c1ccncc1)C2=O the results were VDR inhibitor -13%.
For O=C(COc1cccc2ccccc12)N/N=C/c1ccc(Sc2nc3ccccc3s2)o1 the results were VDR inhibitor 12%.
Screening O=C(/C=C\c1ccco1)Nc1ccc(N2CCN(C(=O)c3ccccc3)CC2)cc1 returned VDR inhibitor inconclusive.
COc1ccc(Cl)cc1Nc1cc(C)nc2nc(C)nn12 was read as VDR inhibitor -17%.
CC1CCC(C(C)C)C(OCC(O)CNC(C)C)C1 (stereo not drawn) was read as VDR inhibitor -1%.
CS(=O)(=O)/C(C#N)=C/c1cccn1S(=O)(=O)c1ccccc1 was read as VDR inhibitor 11%.

Nothing new here: an excerpt of the list.
COCCNC(=O)CCc1c(C)nc2c(c(C)nn2-c2ccc(C)cc2)c1C was read as VDR inhibitor 0%&11%.
Screening O=C(OCN1C(=O)c2ccccc2C1=O)c1cccc(S(=O)(=O)N2CCOCC2)c1 returned VDR inhibitor -4%.
For CS(=O)(=O)Oc1ccc(/C=C2\C(=N)N3N=C(CC(=O)N4CCOCC4)SC3=NC2=O)cc1Cl the results were VDR inhibitor -12%.
Screening CCOC(=O)C1=C(C)OC(N)=C(C#N)C1c1ccc(C)s1 (stereo not drawn) returned VDR inhibitor -3%.
For Cc1cccc(C)c1NC(=O)CNC(=O)C1CCCC1 the results were VDR inhibitor 0%.
For Cc1cccc(N2CCN(C(=O)C3CCN(S(=O)(=O)N4CCOCC4)CC3)CC2C)c1 (stereo not drawn) the results were VDR inhibitor -2%.
For CC(=O)Oc1ccc2c(c1)O/C(=C\c1ccncc1)C2=O the results were VDR inhibitor -13%.

Further structures:
CN(C)c1ccc(C(CNS(=O)(=O)c2ccc(Cl)cc2)N2CCOCC2)cc1 (stereo not drawn) was read as VDR inhibitor 5%.
Screening Cc1cc(/C=C2\Sc3ccccc3N2C)cc(C)[n+]1CC1CCCO1 (stereo not drawn) returned VDR inhibitor 2%.
For CCOc1ccc(C(=O)N2CCN(c3cnn(-c4ccccc4)c(=O)c3Cl)CC2)cc1 the results were VDR inhibitor 1%.
For Cc1cc(NC(=O)CSc2n[nH]c(-c3ccccc3Br)n2)no1 the results were VDR inhibitor -9%.
`COc1ccccc1CCCNC(=O)C1CCC(=O)N(Cc2ccccc2F)C1` (stereo not drawn) gave VDR inhibitor -15%.
For O=C(O)CCSc1nnc(COc2cccc3ccccc23)n1-c1cccc(Cl)c1 the results were VDR inhibitor -4%.
For COc1ccc(CCN(C)C2CC(=O)N(c3ccccc3)C2=O)cc1OC (stereo not drawn) the results were VDR inhibitor 3%.
Screening CCOC(=O)[C@H]1[C@H]2COc3ccc(C)cc3[C@@H]2N2C(=O)CN(Cc3ccc(OC)cc3)C(=O)[C@@]12C returned VDR inhibitor -14%.
Screening CSc1nc2ccc(NS(=O)(=O)c3c(Cl)cccc3Cl)cc2s1 returned VDR inhibitor -6%.
CCOc1ccc(NC(=O)CN2C(=O)CSC2=O)cc1 was read as VDR inhibitor -9%.
Screening CCN(CC)c1ccc2cc(-c3nc4ccccc4[nH]3)c(=O)oc2c1 returned VDR inhibitor -5%.
Screening O=C(C1CCC(CNS(=O)(=O)c2cccc3nsnc23)CC1)N1CCN(c2ccccn2)CC1 (stereo not drawn) returned VDR inhibitor -12%.
`CC12CC3(C)CC(C)(C1)CC(C(=O)NCc1cccnc1)(C2)C3` gave VDR inhibitor -9%.
For O=C(Nc1ccc(F)cc1)Nc1ccccc1N1CCCCC1 the results were VDR inhibitor -18%.
CC1CCc2c(sc3nc(CN4CCOCC4)nc(N4CCc5ccccc5C4)c23)C1 (stereo not drawn) was read as VDR inhibitor 0%.
`COC(=O)c1c(NC(=O)CN2C(=O)C(=O)N(CC(C)C)C2=O)sc(C)c1C` gave VDR inhibitor -10%.
Cc1nc2ncnn2c(C)c1CCC(=O)N1CCN(C(=O)c2ccco2)CC1 was read as VDR inhibitor -3%.
Screening Cc1ccc(N2C(=O)CSC23C(=O)N(Cc2ccccc2F)c2ccccc23)cc1F (stereo not drawn) returned VDR inhibitor 3%.
Screening Oc1ccc(N2CCN(c3ncnc4sc(-c5ccccc5)cc34)CC2)cc1 returned VDR inhibitor 10%.
Cc1ccc(C2(C)NC(=O)N(CC(=O)NCc3cccs3)C2=O)cc1 (stereo not drawn) was read as VDR inhibitor 9%.
For CCN(CC)S(=O)(=O)c1ccc(/C=C/C(=O)O)cc1 the results were VDR inhibitor 2%.
Screening Cc1ccc(/C=C(\C#N)C(=O)NCCN2CCOCC2)cc1 returned VDR inhibitor -18%.
For COc1cc(OC)c2c(-c3cccc(-c4ccc(OC)c(F)c4)c3)cc(=O)oc2c1 the results were VDR inhibitor -20%&-7%.
Screening CSc1nnc(C)c(=O)n1COC(=O)/C=C/c1ccccc1 returned VDR inhibitor 28%.
Screening COC(=O)CSc1nc(N)c2c3c(sc2n1)C(c1ccccc1)SC(c1ccccc1)C3 (stereo not drawn) returned VDR inhibitor -14%.
`O=C(CCCOc1ccccc1)Nc1ccc(S(=O)(=O)N2CCOCC2)cc1` gave VDR inhibitor -13%.
Cc1ccc(C2Cc3cc(O)c(O)cc3CN2)cc1 (stereo not drawn) was read as VDR inhibitor 17%.
Cc1ccc(-c2csc3ncn(-n4c(C)ccc4C)c(=O)c23)o1 was read as VDR inhibitor inconclusive.
`O=C1CC(N2CCN(Cc3ccccc3)CC2)C(=O)N1c1ccccc1` (stereo not drawn) gave VDR inhibitor -17%.
For COc1ccc(Cl)cc1N1Cc2ccccc2C1 the results were VDR inhibitor -7%.
`COc1cccc(-c2cc(C(=O)Nc3cc(C)n(Cc4ccc(Cl)cc4)n3)no2)c1` gave VDR inhibitor -9%.
`CSCC[C@H](NC(=O)CNC(=O)CNC(=O)[C@H](CO)NC(=O)[C@H](CCCNC(=N)N)NC(=O)[C@H](CO)NC(=O)[C@H](CC(C)C)NC(=O)[C@H](CC(C)C)NC(=O)CNC(=O)[C@H](C)NC(=O)[C@H](CC(C)C)NC(=O)[C@H](CCCNC(=N)N)NC(=O)[C@H](Cc1cnc[nH]1)NC(=O)[C@@H](NC(=O)[C@@H](N)C(C)C)[C@@H](C)O)C(=O)N[C@H](C(=O)N[C@@H](CCCCN)C(=O)N[C@@H](CO)C(=O)N[C@@H](CC(N)=O)C(=O)N[C@@H](Cc1ccccc1)C(=O)N[C@H](C(=O)N1CCC[C@H]1C(=O)N[C@H](C(=O)N[C@@H](CC(N)=O)C(=O)N[C@H](C(=O)NCC(=O)N[C@@H](CO)C(=O)N[C@@H](CCCCN)C(=O)N[C@@H](C)C(=O)N[C@@H](Cc1ccccc1)C(N)=O)C(C)C)[C@@H](C)O)C(C)C)C(C)C` gave VDR inhibitor 4%.
`CN(NC(=O)c1ccc(Cl)cc1Cl)C1=NS(=O)(=O)c2ccccc21` gave VDR inhibitor -10%.
`C/C(CC(=O)Nc1ccc(N(C)C)cc1)=N\NC(=O)C(=O)NCc1ccccc1` gave VDR inhibitor -2%.
For COc1ccccc1-c1nc(C#N)c(N2CC(C)CC(C)C2)o1 (stereo not drawn) the results were VDR inhibitor -23%.
`Cc1cccn2c(=O)c3cc(C(=O)NCc4ccc(F)cc4)c(=N)n(CC4CCCO4)c3nc12` (stereo not drawn) gave VDR inhibitor -19%.
Cc1[nH]c(C)c(S(=O)(=O)Nc2ccc(OC(F)(F)F)cc2)c1C(=O)N1CCCCC1 was read as VDR inhibitor -12%.
Screening O=c1cc(-c2ccsc2)oc2ccccc12 returned VDR inhibitor 6%.
Screening COC(=O)c1ccccc1NC(=O)c1nc(-c2ccc(C)cc2)n2c1CCCCC2 returned VDR inhibitor 0%.
Screening COc1cccc2cc(C(C)OC(=O)Nc3ccc(C)cc3)oc12 (stereo not drawn) returned VDR inhibitor 19%.
`CCn1c(SC)nnc1-c1nnc(SC)n1CC` gave VDR inhibitor -5%.
Cc1sc2c(=O)n3c(nc2c1C(=O)NCCCN1CCOCC1)CCCCC3 was read as VDR inhibitor -6%.
For CCCCn1c(SCC(=O)Nc2cccc(C)n2)nnc1-c1ccco1 the results were VDR inhibitor 6%.
CSc1nnc(-c2ccccc2)n1N was read as VDR inhibitor 10%.
Screening Cc1cccc2cc(C#N)c(N3CCCC3)nc12 returned VDR inhibitor 13%.
Screening COc1cc(NC(=O)CN2C(=O)NC(C)(CCC(C)C)C2=O)cc(OC)c1 (stereo not drawn) returned VDR inhibitor 1%.
Screening CCCCc1ccc(NC(=S)N2CCCC(CO)C2)cc1 (stereo not drawn) returned VDR inhibitor -4%.
Screening O=C(O)c1ccccc1C(=O)Nc1ccc(Oc2cccc3ccccc23)cc1 returned VDR inhibitor -14%.
`CC(Oc1ccccc1)C(=O)N1CCN(c2ccc(N3CCCCC3)nn2)CC1` (stereo not drawn) gave VDR inhibitor 10%.
For O=C(Nc1ccc(Nc2ccccc2)cc1)c1ccc(Br)cc1 the results were VDR inhibitor -1%.
For O=C(COc1ccccc1)NCC(c1ccc(Cl)cc1)N1CCOCC1 (stereo not drawn) the results were VDR inhibitor 5%.
`Cn1nnnc1SCC(=O)Nc1nc(-c2ccc(F)c(F)c2)cs1` gave VDR inhibitor 5%.
`O=c1c2ccccc2[nH]c(=S)n1CCC1=CCCCC1` gave VDR inhibitor -3%.
Screening CNc1ccnc(-c2ccccc2C)n1 returned VDR inhibitor -18%.
Cn1c(-c2ccccc2)cc2onc(-c3ccccc3)c2c1=O was read as VDR inhibitor -15%.

Sorted by SMILES length (smallest number first): part of the list above
For O=C(Nc1ccc(Nc2ccccc2)cc1)c1ccc(Br)cc1 the results were VDR inhibitor -1%.
Cn1c(-c2ccccc2)cc2onc(-c3ccccc3)c2c1=O was read as VDR inhibitor -15%.
`Cn1nnnc1SCC(=O)Nc1nc(-c2ccc(F)c(F)c2)cs1` gave VDR inhibitor 5%.
